CtBP-E1A inh = qHTS Assay for Inhibitors of the CtBP/E1A Interaction | AlphaScreen GST-E1A/His-CtBP binding, 1536-well; active compounds read low; control for the full effect not named in the record | activity change, % (concentration not given with the values) | hit rate 0.49% among 340,000 | AID 651724, 2012; in the data active means activity change below about -65%; inconclusive means about -30% to -65%; inactive means above about -30%; further: on the % scale 0 is the no-effect control and ±100 the full control effect
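Steps: dispense buffer (Tris pH 8.0, NaCl 300 mM, TCEP 1 mM, BSA, Tween 20); add 5X protein mix (GST-E1A, His-CtBP, 125 nM each); pin 23 nL compound; 2 h at 37 °C, dark; add 5X beads (50 ug/mL); 1 h; read.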
Sfp inh = qHTS Assay for Inhibitors of Bacillus subtilis Sfp phosphopantetheinyl transferase (PPTase). Potency, µM, for the others: max response, negative = inhibition, most hits filed as inhibitors. Biochemical Sfp PPTase activity, qHTS. hit rate 3.5% among 310,000; active means well fitted inhibition curve with a large enough effect; inconclusive means small, poorly fitted or top-dose-only effect, or another doubt; inactive means no such curve, though single readings can be large or run the other way;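 further: the enzyme is Sfp with the accession as filed and its product quenches rhodamine fluorescence; potency means the concentration at half of the fitted maximal effect; 0% = enzyme reaction without inhibitor and -100% = no enzyme wells; top concentration of the series not given in the record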
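Fluorescence-quenching assay with 15 nM Sfp, 5 uM rhodamine-CoA and 12.5 uM BHQ-2-labelled ybbR peptide in pH 7.6 Hepes/MgCl2 buffer. Enzyme was pre-incubated with compound for 15 min at room temperature. Rate was taken from the 30-min fluorescence change (525/598 nm).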
gsp antagonist = qHTS for Antagonists of gsp, the Etiologic Mutation Responsible for Fibrous Dysplasia/McCune-Albright Syndrome: qHTS | gsp-mutant cells, cAMP HTRF, 30 min; control for the full effect not named in the record | Potency, µM (top dose mostly 76.9 µM), for the others: at the highest dose activity change, negative = inhibition, hits mostly inhibitors | hit rate 0.4% among 340,000; active = falling curve of any shape with a large fitted effect; inconclusive = falling curve, mostly with a smaller effect; inactive = flat or rising curve; cell line not stated here;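 further: intracellular cAMP measured with PDE inhibitor Ro 20-1724 present during compound exposure; potency means the concentration at half of the fitted maximal effect; on the % scale 0 is the no-effect control and ±100 the full control effect; nearly all actives have a fitted effect of over 65% in size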
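HTRF cAMP measurement after 30 min RT detection following 30 min, 37C compound treatment alongside […] (added as 300 uM solution) in G418-selected cells seeded at 2000/well and grown 16–24 h.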
ClpP mod = qHTS Assay for Activators of ClpP | hit rate 1.9% among 340,000 | ATP-dependent Clp protease proteolytic subunit (Bacillus subtilis (strain 168)), P80244 | purified B. subtilis ClpP, FRET peptide cleavage, 20 min | Potency, µM (titrated, usually from 57.5 µM), for the others: at the highest dose activity change, negative = active; active = well fitted falling curve with a large enough effect; inconclusive = small, poorly fitted or top-dose-only effect; inactive = no such curve, though single readings can be large or run the other way; further: potency means the concentration at half of the fitted maximal effect; the source files actives as falling curves though it sought activators and does not explain the sign; nearly all actives have a fitted effect of over 65% in size; many hits overshoot -100%
Target sequence (P80244 whole entry, looked up): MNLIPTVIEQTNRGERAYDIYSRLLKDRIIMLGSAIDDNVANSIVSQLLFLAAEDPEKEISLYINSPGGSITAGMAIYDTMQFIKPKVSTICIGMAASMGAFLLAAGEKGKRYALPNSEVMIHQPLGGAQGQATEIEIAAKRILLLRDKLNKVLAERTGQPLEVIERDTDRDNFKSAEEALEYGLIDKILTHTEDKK
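ClpP 10 microg/mL final, pH 8 Tris/KCl buffer with BSA, glycerol, Tween-20; compound pinned in; FRET-FV substrate; RT 20 min; Ex320/Em430; ΔFRET vs ADEP 5.8 microM, DMSO, no enzyme.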
gsp agonist = qHTS for Agonist of gsp, the Etiologic Mutation Responsible for Fibrous Dysplasia/McCune-Albright Syndrome: qHTS. gsp mutant cells, cAMP HTRF, 30 min; control for the full effect not named in the record. Potency, µM (highest dose often 76.9 µM), without a hit: at the top dose activation (cAMP increase), actives largely listed as activators. hit rate 0.13% among 340,000; active = well fitted activation curve with a large enough effect; inconclusive = small, poorly fitted or top-dose-only effect, or another doubt; inactive = no such curve, though single readings can be large or run the other way; cell line not stated here;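 further: phosphodiesterase inhibitor Ro 20-1724 added with compounds to block cAMP breakdown; potency means the concentration at half of the fitted maximal effect; nearly all actives have a fitted effect of over 60% in size; about a fifth of the inactives were tested at one dose only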
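Cells in DMEM/10% FBS with G418 were pretreated with compounds in DMSO plus […] (300 uM stock) for 30 min at 37C. cAMP was measured by HTRF (cAMP-d2 plus anti-cAMP antibody-K) after 30 min at room temperature.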
Menin MLL FP FL = qHTS Assay for Inhibitors Targeting the Menin-MLL Interaction in MLL Related Leukemias: Competition With Fluorescein Labeled MLL-derived Peptide | 290,000 tested, under 10 active | Fluorescence polarization, fluorescein-MLL peptide displacement from menin | FP activity change, % at 61.4 µM | AID 1766, 2009; inconclusive = falling polarisation curve, or a change in total fluorescence; inactive = total fluorescence flat and polarisation flat or rising; no compound was filed as active; the % refers to the polarisation; negative = inhibition;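 further: % of control where 0% means no effect; inhibitors lower the polarisation; unlabelled MLL peptide was the positive control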
TRPV1 potentiator = HTS Assay for Compounds that Act as Potentiators of the Vanilloid Receptor 1. Transient receptor potential cation channel subfamily V member 1 (Homo sapiens), Q8NER1. potentiation, % at 8.33 µM. hit rate 0.02% among 320,000. TRPV1-expressing cells, Fluo-8 calcium influx, capsaicin EC20 potentiation; host cell line not named in the record; control for the full effect not named in the record; active means potentiation above 80%; inconclusive means 30% to 80%; inactive means below 30%; further: 0% is about no effect
Target sequence (Q8NER1 whole entry, looked up): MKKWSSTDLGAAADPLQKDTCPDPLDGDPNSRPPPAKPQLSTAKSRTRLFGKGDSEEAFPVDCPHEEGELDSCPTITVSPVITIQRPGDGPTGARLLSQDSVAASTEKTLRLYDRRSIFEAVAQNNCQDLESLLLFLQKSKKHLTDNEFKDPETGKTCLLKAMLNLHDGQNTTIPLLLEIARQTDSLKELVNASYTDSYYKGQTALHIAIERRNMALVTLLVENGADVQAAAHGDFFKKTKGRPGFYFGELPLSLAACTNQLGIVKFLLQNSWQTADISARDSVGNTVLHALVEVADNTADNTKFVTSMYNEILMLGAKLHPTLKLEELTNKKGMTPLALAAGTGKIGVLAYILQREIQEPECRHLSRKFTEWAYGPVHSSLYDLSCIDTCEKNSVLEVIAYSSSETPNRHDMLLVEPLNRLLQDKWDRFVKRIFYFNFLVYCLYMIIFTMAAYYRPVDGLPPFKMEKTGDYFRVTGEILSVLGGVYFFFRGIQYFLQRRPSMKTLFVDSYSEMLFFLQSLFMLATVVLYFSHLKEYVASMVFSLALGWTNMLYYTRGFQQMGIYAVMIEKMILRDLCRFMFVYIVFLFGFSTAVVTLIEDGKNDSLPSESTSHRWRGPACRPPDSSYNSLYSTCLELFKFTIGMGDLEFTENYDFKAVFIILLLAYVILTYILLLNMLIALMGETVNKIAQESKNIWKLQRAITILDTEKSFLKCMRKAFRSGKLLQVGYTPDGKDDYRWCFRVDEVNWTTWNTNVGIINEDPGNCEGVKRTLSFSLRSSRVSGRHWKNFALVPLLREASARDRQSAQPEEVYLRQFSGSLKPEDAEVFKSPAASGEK
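Cells expressing TRPV1 were dye-loaded with Fluo-8 and read kinetically: 10 s baseline, 3 min after compound (agonist portion), then 2 min after EC20 capsaicin (allosteric enhancer portion). Calcium-bound dye fluorescence at 480/520 nm.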
* = called active by the depositor; ? = inconclusive; . = no result given; [ ] = dose if it differs, or a comment.

SMILES	CtBP-E1A inh	Sfp inh	gsp antagonist	ClpP mod	gsp agonist	Menin MLL FP FL	TRPV1 potentiator
Cc1c(C=O)c(=O)n(-c2ccccc2)n1C	11.3	23.4%	9.5%	0.8%	?	-2.8	4.3
O=C1N(c2ccccc2C(F)(F)F)O[C@@]1(c1ccccc1)C1CCCCC1	-9.2	.	-5.3%	-7.3%	-13.0%	.	1.8
Cc1ccc2[nH]c3c(NCCCN4CCCC4=O)ncnc3c2c1	-11.4	?	-8.3%	?	11.6%	0.3	?
O=C(CCn1c(=S)[nH]c2ccccc2c1=O)N1CCOCC1	2.5	-9.6%	0.6%	-1.2%	-65.5%	-0.8	7.6
CC(=O)OCC(=O)C1(O)CCC2C3CCC4=CC(=O)C=CC4(C)C3C(=O)CC21C (configuration not stated)	-2.8	.	5.1%	.	27.0%	.	.
O=C1CN2C(=N1)N(Cc1ccccc1)c1ccccc12	3.3	6.7%	-9.0%	-0.9%	-3.6%	3.6	-29.5
Cc1cc(C(=O)Nc2nc(-c3ccccn3)cs2)ccc1[N+](=O)[O-]	-14.3	7.8%	.	.	6.8%[15.4 µM]	0.2	0.5
O=C(Nc1cccc(S(=O)(=O)N2CCOCC2)c1)C(c1ccccc1)N1CCCCC1 (configuration not stated)	.	-1.7%	-4.6%	.	-0.9%[15.4 µM]	0.6	17.0
Cc1ccc(C(=O)N/C(=C\c2ccco2)C(=O)NCCN2CCOCC2)cc1	6.1	11.8%	-1.3%	.	20.7%[15.4 µM]	9.4	-1.4
O=C(C[n+]1cnn(CC(=O)c2ccc(Cl)cc2Cl)c1)c1ccc([N+](=O)[O-])cc1	4.4	19.5%	8.7%	1.4%	2.1%	2.6	5.0
CC1CN(c2ccc([N+](=O)[O-])cc2F)CCN1C(=O)c1ccco1 (configuration not stated)	-1.4	-11.3%	-36.0%	-2.3%	-85.3%[inhibitor]	2.8	-17.4
CC1(C)OC(=O)C(=CNc2ncccn2)C(=O)O1	-5.4	11.0%	12.2%	-0.8%	-45.7%[inhibitor]	4.3	-2.5
COn1c(SCc2ccccc2)nc2ccccc2c1=O	21.7	-13.9%	?	0.6%	?	-1.0	1.4
Cc1cc(NC(=O)CSc2nc(C(C)(C)C)nc3ccccc23)no1	12.3	22.0%	22.2%	0.8%	25.1µM*	-8.8	1.3
Cc1cccc(N2C(=O)CC(n3ccnc3)C2=O)c1C (configuration not stated)	5.1	10.3%	1.7%	1.4%	-40.8%[inhibitor]	-0.6	1.7
CC(=O)N1CCc2cc(C(=O)CN3CCN(c4ccccc4F)CC3)ccc21	3.1	50.1µM*	-2.5%	-8.6%	-2.0%	3.2	2.0
COc1cc(NC(=S)N2CCN(S(C)(=O)=O)CC2)cc(OC)c1	0.5	16.5%	3.2%	-0.4%	14.8%	.	0.8
COc1cc(/C=N\NC(=O)c2ccc(C)nc2)ccc1OC(=O)c1ccco1	-11.8	-1.5%	2.4%	.	-23.9%[15.4 µM]	1.1	2.4
Cc1ccc(NC(=O)C2CCN(S(=O)(=O)c3ccccc3)CC2)cc1	-13.3	13.9%	-10.7%	.	-2.5%[15.4 µM]	-0.7	-10.7
CCOc1cc(C2NC(=O)NC(C)=C2C(=O)OC(C)CC)cc(Br)c1O (configuration not stated)	-1.1	-5.1%	-12.6%	1.3%	18.2%	2.8	6.6
COc1ccc(CCNC(=O)CNC(=O)c2ccco2)cc1	6.6	9.7%	4.4%	.	-26.0%	-0.5	13.8
CCN1C(=O)C(CC(=O)NCCc2ccccc2)N(NC(=O)c2ccc(Br)cc2)C1=S (configuration not stated)	-0.6	.	.	0.5%	-47.1%	.	.
COc1ccccc1NC(=O)CCCN1C(=O)C2CC=CCC2C1=O (configuration not stated)	10.2	10.2%	6.6%	0.6%	-4.2%	.	-3.8
COCOCCn1cc(CN2CCS(=O)(=O)N(Cc3ccc(-c4ccc(F)nc4)cc3)C(CC(C)C)C2=O)nn1 (configuration not stated)	-24.4	.	.	-1.7%	?	.	.
Cc1cc(NC(=O)CSc2nc(-c3ccco3)cc(C(F)(F)F)n2)n(-c2ccccc2)n1	-1.7	?	10.3%	1.9%	19.6%	8.1	16.9

4 entries from above in another layout:
CCN1C(=O)C(CC(=O)NCCc2ccccc2)N(NC(=O)c2ccc(Br)cc2)C1=S (configuration not stated)
  CtBP-E1A inh: -0.6
  Sfp inh: .
  gsp antagonist: .
  ClpP mod: 0.5%
  gsp agonist: -47.1%
  Menin MLL FP FL: .
  TRPV1 potentiator: .

COc1ccccc1NC(=O)CCCN1C(=O)C2CC=CCC2C1=O (configuration not stated)
  CtBP-E1A inh: 10.2
  Sfp inh: 10.2%
  gsp antagonist: 6.6%
  ClpP mod: 0.6%
  gsp agonist: -4.2%
  Menin MLL FP FL: .
  TRPV1 potentiator: -3.8

COCOCCn1cc(CN2CCS(=O)(=O)N(Cc3ccc(-c4ccc(F)nc4)cc3)C(CC(C)C)C2=O)nn1 (configuration not stated)
  CtBP-E1A inh: -24.4
  Sfp inh: .
  gsp antagonist: .
  ClpP mod: -1.7%
  gsp agonist: ?
  Menin MLL FP FL: .
  TRPV1 potentiator: .

Cc1cc(NC(=O)CSc2nc(-c3ccco3)cc(C(F)(F)F)n2)n(-c2ccccc2)n1
  CtBP-E1A inh: -1.7
  Sfp inh: ?
  gsp antagonist: 10.3%
  ClpP mod: 1.9%
  gsp agonist: 19.6%
  Menin MLL FP FL: 8.1
  TRPV1 potentiator: 16.9

(continued)
SMILES	CtBP-E1A inh	Sfp inh	gsp antagonist	ClpP mod	gsp agonist	Menin MLL FP FL	TRPV1 potentiator
O=C(c1ccco1)N1CCN(c2c([N+](=O)[O-])nn(-c3ccc(Cl)cc3)[n+]2[O-])CC1	1.5	12.5%	1.4%	.	0.3%	-1.9	-5.9
CCOC(=O)/C=C1\Nc2ccccc2SC1=O	5.0	-2.8%	16.3%	0.8%	7.4%	3.6	6.6
COc1cc(CCCN[C@H](CN)Cc2ccccc2)cc(OC)c1OC	-20.7	.	8.1%	-2.9%	3.7%	.	9.2
COc1ccc(N2CCN(C(=O)CSc3nnc4nc(C)cc(C)n34)CC2)cc1	7.5	.	-5.3%	-3.3%	?	.	.
COc1ccc(-c2onc3ccc(Cl)cc23)cc1	8.1	50.1µM*	-1.7%	3.0%	-28.6%	2.0	-4.6
CC1CCCN(CC(=O)Nc2ccc(S(=O)(=O)N3CCCCCC3)cc2)C1 (configuration not stated)	-23.1	4.2%	-0.6%	-3.2%	0.2%	-1.1	-9.9
c1nnc2c3c4c(sc3ncn12)CCCC4	.	9.9%	.	.	.	-4.6	9.4
Cc1cccc(NC(=O)c2sccc2-n2cccc2)c1C	-5.0	7.7%	?	0.5%	7.0%	1.7	-20.3
CCC(NC(=O)CSc1nnnn1C1CC1)c1ccc(Br)cc1 (configuration not stated)	-1.5	.	1.8%	0.4%	-194.5%[inhibitor]	.	0.6
Cc1nn2c3cc(N4CCOCC4)ccc3nc2c2ccccc12	?	.	-7.3%	?	1.4%	.	.
Cc1ccc(NC(=O)N2CCC(NC(=O)c3cccc(C)c3)CC2)cc1	-6.4	-13.3%	-5.0%	.	13.9%	0.0	-20.0
CC(=O)c1cccc(NC(=O)NC2CC(=O)N(c3ccc4c(c3)OCCO4)C2)c1 (configuration not stated)	3.8	.	13.1%	-6.9%	10.1%	.	11.7
O=C(CN1CCC(NC(=O)c2ccccc2Cl)CC1)NCc1ccco1	.	3.6%	5.4%	0.6%	-12.5%	-1.4	-13.3
Cc1ccc(S(=O)(=O)Nc2nc3ccccc3s2)cc1	-0.6	27.2%	-9.1%	-1.2%	21.7%	1.6	19.7
C(=N\N1CCOCC1)/c1cn(-c2ccccc2)nc1-c1ccccc1	-16.4	-5.3%	3.0%	.	-25.5%	-0.1	-15.0
CCCCCNC(=O)c1ccc2c(=O)n(CCOC)c(=O)[nH]c2c1	-3.4	16.7%	-3.1%	?	10.4%	2.5	-4.6
Cc1ccsc1C(=O)NCCc1nnc2ccccn12	.	-2.9%	11.7%	-2.8%	2.5%	0.4	4.9
Cc1cc(C)n(-c2nc3ccccc3nc2N2CCCCCC2)n1	67.2	?	?	1.1%	-35.8%[inhibitor]	4.2	5.3
CC1CC(C)CN(CCOc2cccc3ccccc23)C1 (configuration not stated)	-4.8	7.8%	7.7%	.	25.3%	-4.3	11.5
CC(=O)c1ccc(NC(=O)C(C)OC(=O)/C=C/c2ccco2)cc1 (configuration not stated)	-1.0	.	-12.6%	.	?	.	.
O=C(c1cc(=O)[nH]c2ccccc12)N1CC=C(c2ccccc2)CC1	-0.8	.	4.4%	-0.7%	-3.5%[15.4 µM]	.	20.8
O=C(Nc1ccc2oc(-c3ccccc3F)nc2c1)c1cncc(Br)c1	-0.5	-3.2%	9.2%	7.0%	20.9%	5.7	10.3
COc1ccc(OC)c(NC(=O)CSC2=NN3CCCC(=O)N=C3S2)c1	-1.4	6.2%	-3.4%	.	-16.6%	0.1	12.2
N#C/C(=N\O)c1nc2ccccc2s1	5.1	24.2%	-7.7%	0.9%	3.0%	2.4	5.5
CC(NC(=O)COC(=O)COc1cccc2c1OC(C)(C)C2)c1ccccc1 (configuration not stated)	2.8	14.5%	-13.6%	0.7%	19.6%[15.4 µM]	.	-11.0
CN(C)c1cccc(C(=O)Nc2nnc(Cc3ccccc3)s2)c1	-8.0	-8.4%	-10.8%	.	21.3%	0.1	-13.0
COc1cc(-n2c(C)nc3cc(C(=O)O)ccc32)cc(OC)c1OC	-14.5	-9.2%	?	0.3%	2.6%	0.9	-2.1
CCC(C)[C@H](NC(=O)Nc1ccc(S(N)(=O)=O)cc1)C(=O)OC (some centres not stated)	11.1	11.2%	3.3%	.	5.2%[15.4 µM]	-1.0	9.3

Compound activity (PubChem BioAssay)
